Source: PubChem BioAssay (NMMLSC)
Autofluor counter: compound fluorescence in toxin protease inhibitor counterscreen; compound autofluorescence counterscreen, microsphere flow cytometry; active compounds read high; fluorescence intensity (test concentration not listed); actives 3.1% (n = 360,000); AID 624483;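 active = at least 3 SD above the mean of all compounds, about 16000 in these data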;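 note: 100 nL of 1 mM stock went into each well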
Active calls of the source: *.

cpd	compound	Autofluor counter
1	C[C@@H]1CN([C@H](C)CO)C(=O)CCCn2nncc2CO[C@@H]1CN(C)C(=O)c1ccccc1	3662
2	COc1cc(OC)nc(Nc2nc(C(N)c3ccccc3)cs2)n1 (centres undefined)	3415
3	O=C(NC1CCN(Cc2ccccc2)CC1)c1ccc(CS(=O)c2ccccc2Cl)o1 (centres undefined)	4206
4	Cc1cc2c(C(C)C)c(O)c(O)c(C=O)c2c(O)c1-c1c(C)cc2c(C(C)C)c(O)c(O)c(C=O)c2c1O	5135
5	C[C@@H]1CN([C@H](C)CO)C(=O)CCCn2nncc2CO[C@H]1CN(C)Cc1ccc(Cl)c(Cl)c1	3316
6	Cc1ccc(OCC(=O)OCC(=O)NC2CCCCCC2)cc1C	3009
7	CCOC(=O)C1=CCN(S(=O)(=O)c2ccc(C)cc2)C1c1cccc(C)c1 (centres undefined)	6540
8	Cc1ccc(NC(=O)c2cc(S(=O)(=O)N3CCCCC3)c[nH]2)cc1Cl	5640
9	Cc1nnc(NC(=O)CCN2C(=O)C3CC=CCC3C2=O)s1 (centres undefined)	3900
10	O=C(OCc1cn([C@H]2CN(CC3CCCCC3)[C@@H](c3ccccc3)C[C@@H]2O)nn1)c1ccccc1	3752
11	CCOC(=O)C1(C)CCCN(C(=O)c2c(F)cccc2F)C1 (centres undefined)	3998
12	O=[N+]([O-])c1cccc(CON=Cc2ccccc2O)c1	3662
13	CCOC(=O)c1c(C)[nH]c(/C(C)=N/NC(=O)c2cccnc2)c1C	3866
14	CC1OC(C(C)(C)C)CC2=C1C(=O)OC(C)(C)O2 (centres undefined)	5369
15	COc1ccc2nc3n(c(=O)c2c1)-c1ncccc1C(=O)NC3Cc1ccccc1 (centres undefined)	3888
16	Cc1noc(C)c1C(=O)OCC(=O)NC(=O)c1ccc(C(C)(C)C)cc1	3640
17	NC(c1ccccc1)c1csc(NC(=O)NCCc2ccccc2)n1 (centres undefined)	3540
18	Brc1cccc(-c2nc3c4ccccc4ccn3c2CC2CCCCC2)c1	6425
19	CN(c1cc2c(c3c1ccn3C)C1CCC2O1)C1CCCCC1 (centres undefined)	6129
20	Cc1nc2cc3c(=O)n(C)cnc3cc2n1Cc1ccccc1	2888
21	COc1ccccc1CNS(=O)(=O)c1c(C)cc(C)cc1C	3407
22	Cc1ccc(C(=O)NC(=S)c2c(C)cc3ccccn23)cc1	4024
23	Cc1noc(C)c1S(=O)(=O)N(C)C[C@@H]1OCc2cn(nn2)CCCC(=O)N([C@@H](C)CO)C[C@H]1C	3604
24	CN(C)C(=O)c1cccc(-c2cnc3c(NC=O)cc(-c4ccccc4N(C)C)cn23)c1	3117
25	COc1ccc(C(CC(=O)c2ccc3c(c2)OCO3)C(=O)O)cc1OC (centres undefined)	2902
26	CC(=O)NC(c1cccc(F)c1)c1nc(/C=C/c2ccccc2)cs1 (centres undefined)	3645
27	O=C(NCC(F)(F)F)c1cc2c(c(-c3cccc(-c4ccccc4F)c3)n1)[C@H](CCO)N(C(=O)CC1CC1)C2	6257
28	O=S1(=O)CC(N2CCN(CCO)CC2)CN1C1CCCCC1 (centres undefined)	5912
29	CCCS(=O)(=O)NC(=O)C1(C)CCN(C(=O)COc2ccccc2)C1 (centres undefined)	3717
30	CN(CCO)C(=O)c1nc[nH]c1C(=O)N1CCN(C(=O)OC(C)(C)C)CC1	3313

In the list so far, these contain a Cl atom.
cpd	compound	Autofluor counter
3	O=C(NC1CCN(Cc2ccccc2)CC1)c1ccc(CS(=O)c2ccccc2Cl)o1 (centres undefined)	4206
5	C[C@@H]1CN([C@H](C)CO)C(=O)CCCn2nncc2CO[C@H]1CN(C)Cc1ccc(Cl)c(Cl)c1	3316
8	Cc1ccc(NC(=O)c2cc(S(=O)(=O)N3CCCCC3)c[nH]2)cc1Cl	5640

(more compounds)
cpd	compound	Autofluor counter
31	CCCc1nc2ccc(Cl)cn2c1Cc1cccc(Cl)c1	6570
32	CCCS(=O)(=O)NC(=O)C1(C)CCN(C(=O)c2cccc(OC(F)(F)F)c2)C1 (centres undefined)	3675
33	CC(=O)Nc1cccc(-c2ccnc3c2CC(C(=O)NCCc2ccccc2)O3)c1 (centres undefined)	3417
34	Cc1ccc(NC(=O)C2(C)CCN2C(=O)Cc2ccccc2Cl)cc1C (centres undefined)	3898
35	COCCCn1cc(CN2CC(N3CCCC3)CS2(=O)=O)nn1 (centres undefined)	4310
36	O=S(=O)(Nc1ccccc1Br)c1cccc2cccnc12	3951
37	OC(c1ccccc1)c1ncc(-c2cccc(C(F)(F)F)c2)[nH]1 (centres undefined)	3506
38	CC(=O)Oc1ccccc1Cn1c(C)c(C(=O)NCc2ccccc2C(F)(F)F)sc1=O	5097
39	CC(=O)Nc1ccc(S(=O)(=O)NCCC(=O)NCc2ccco2)cc1	3848
40	CC1(C(=O)NS(=O)(=O)c2ccc(C#N)cc2)CCN1C(=O)c1ccccc1CCc1ccccc1 (centres undefined)	3763
41	Cc1cc(C)c(S(=O)(=O)N2CCN(C(=O)CC(C)n3nc(C)nc3C)CC2)c(C)c1 (centres undefined)	3657
42	CC1(C(=O)NS(=O)(=O)Cc2cccc(Cl)c2)CCN1C(=O)C/C=C/c1ccccc1 (centres undefined)	3692
43	C[C@@H]1CNC(=O)c2c(C(=O)NC3CCN(C(=O)OC(C)(C)C)CC3)ncn21	4437
44	O=C(Nc1cccc([N+](=O)[O-])c1)c1ccc([N+](=O)[O-])o1	3390
45	O=C1c2cccc3c2C2(O)c4c1cccc4C(=O)c1cccc(c12)C3=O	3732
46	COc1ccc(CNc2nn3c(-c4cccc(C(=O)N(C)C)c4)cnc3s2)cc1	2897
47	O=C(NC(c1ccc(-c2ccccc2)cc1)c1cnccn1)C1CCN(Cc2cccs2)CC1 (centres undefined)	3156
48	Cc1nc2c(OCc3cc(Cl)cc(Cl)c3)cccn2c1N(C)C(=O)CCC1CCCC1	3931
49	O=C(c1cccc(S(=O)(=O)N2CCOCC2)c1)N1CCN(c2ncccn2)CC1	2909
50	CCOC(=O)C1CCCN(C(=O)c2ccccc2OC(F)(F)F)CC1 (centres undefined)	3492
51	CCCN1CCN(C(=O)c2ccc(CS(=O)c3ccc(Br)cc3)o2)CC1 (centres undefined)	3980
52	C(CCN1CCOCC1)CN1CCOCC1	5959
53	CC(=O)Nc1ccc(NC(=O)c2ccc(S(=O)(=O)N3CCCCCC3)cc2)cc1	3625
54	Cc1cc(C(=O)N2CCCC2(C)C(=O)NCC(C)C)nn1C(C)(C)C (centres undefined)	3457
55	CC(=O)Nc1cc(-c2cccnc2)cn2c(-c3ccc(F)cc3)cnc12	3081
56	S=c1nc(-c2ccccn2)c(-c2ccccn2)n[nH]1	4231
57	CCCCCCCCN1C(=O)[C@H](CC(=O)N2CCOCC2)C[C@@]2(C(=O)OC)CCCCC=C12	6243
58	Cc1cccnc1C(NC(=O)C1CCN(CCOc2ccc(Cl)cc2Cl)CC1)c1ccc(Cl)cc1 (centres undefined)	4242
59	COc1cccc(C(O)c2ncc(-c3cccc(F)c3)[nH]2)c1 (centres undefined)	3878
60	Cc1cccc2c(=O)n(C(=O)c3ccccc3)c(N)nc12	3448

An excerpt from above in order of number of heavy atoms, largest number first.
cpd	compound	Autofluor counter
47	O=C(NC(c1ccc(-c2ccccc2)cc1)c1cnccn1)C1CCN(Cc2cccs2)CC1 (centres undefined)	3156
33	CC(=O)Nc1cccc(-c2ccnc3c2CC(C(=O)NCCc2ccccc2)O3)c1 (centres undefined)	3417
53	CC(=O)Nc1ccc(NC(=O)c2ccc(S(=O)(=O)N3CCCCCC3)cc2)cc1	3625
50	CCOC(=O)C1CCCN(C(=O)c2ccccc2OC(F)(F)F)CC1 (centres undefined)	3492
52	C(CCN1CCOCC1)CN1CCOCC1	5959

Following part
cpd	compound	Autofluor counter
61	COC(=O)[C@@]1(Cc2ccc(F)cc2)[C@H]2c3cc(C(=O)N4CCCC4)n(Cc4cc(C)n(C)n4)c3C[C@H]2CN1C(=O)c1ccccc1	5626
62	COc1ccc(CN2CCC[C@]3(N[C@H](c4ccc(C)cc4)[C@@H]4C(=O)N(Cc5ccccc5)C(=O)[C@@H]43)C2=O)cc1	3514
63	CCOC(=O)[C@]12CCC=C1N(Cc1ccccc1)C(=O)[C@H](CC(=O)NCCC(C)C)C2	4298
64	O=c1c2ccccc2sn1-c1ccc(Cl)cc1	2828
65	COc1ccc(NC(=O)N(C)C[C@H]2OCc3cn(nn3)CCCC(=O)N([C@@H](C)CO)C[C@@H]2C)cc1	3611
66	CCOc1ccc(CCN2C(=O)C(=O)N([C@@H](Cc3ccccc3)CN3CCC[C@H]3CN3C(=O)C(=O)NC[C@@H]3Cc3ccc(O)cc3)C[C@@H]2Cc2ccc(O)cc2)cc1	4122
67	CCCCNC(=O)C1(C)CCCCN1C(=O)c1cc(OC)ccc1Br (centres undefined)	3474
68	CNC(=O)C[C@H]1C(=O)N(CCc2ccccc2)C[C@@H]1c1ccc(OC)cc1	4040
69	CCCCNC(=O)C[C@@H]1C[C@@]2(C(=O)OC)CCCCC=C2N(Cc2cccc3ccccc23)C1=O	4304
70	COc1ccccc1-c1cc(NC=O)c2ncc(-c3ccc(S(C)(=O)=O)cc3)n2c1	3999
71	O=C(Nc1ccc2c(c1)OCO2)c1cc(C2CCCCN2C(=O)c2ccc3c(c2)CCO3)on1 (centres undefined)	3548
72	Cc1c(Br)cccc1NC(=O)C1(C)CCN1C(C)C (centres undefined)	3679
73	CC(C)NC1C2CCC(CC2)C1(O)c1ccc(Cl)c(Cl)c1 (centres undefined)	3906
74	COc1ccc(CC(=O)NCc2ccccc2F)cc1S(=O)(=O)N1CCOCC1	4014
75	Cc1cn([C@H]2C[C@H](O)[C@@H](CCC(=O)NCCCc3ccccc3)O2)c(=O)[nH]c1=O	6232
76	Nc1[nH]c(C(=O)c2ccccc2)c(-c2ccncc2)c1C(=O)NCc1cccc2ccccc12	5033
77	CCOC(=O)[C@]12CCC=C1N(Cc1ccc3c(c1)OCO3)C(=O)[C@H](CC(=O)N1CCCC1)C2	5731
78	O=[N+]([O-])c1ccc(C=NN2CCOCC2)s1	3603
79	O=C(Nc1ccc2c(c1)OCCO2)C1c2ccccc2OCC(=O)N1Cc1ccc2c(c1)OCO2 (centres undefined)	5725
80	CSc1ccc(Cn2c(C)c(C(=O)NCc3ccc(C(C)C)cc3)sc2=O)cc1	5420
81	CCCS(=O)(=O)NC(=O)C1(C)CCN(C(=O)c2ccccc2OC(F)(F)F)C1 (centres undefined)	2905
82	CCc1nc2ccc(C(=O)Nc3cc(-c4ccccc4)ccc3OC)cn2c1N(C=O)CCC(C)C	3949
83	Cc1csc(-c2cc(C(=O)NCc3cc(C(F)(F)F)cc(C(F)(F)F)c3)n[nH]2)c1	3791
84	CCOc1ccc(NC(=O)CSc2nc3ccsc3c(=O)n2CCCCC(=O)O)cc1	3516
85	O[C@@H]1CN(CC2CCCCC2)[C@@H](c2ccc(Cl)cc2)C[C@H]1n1cc(-c2ccc(F)cc2)nn1	3722
86	CCc1nc2c(OCC3COc4ccccc4O3)cccn2c1N(C)C(=O)c1ccccc1F (centres undefined)	3619
87	COCCNc1nc2cc(-c3ccccc3C)sc2c(=O)n1C	3396
88	CCc1nc2ccc(C(=O)NCCCN(C)C)cn2c1N(CC)CCOC	2995
89	CN(CCO)c1ccc2c(c1)OC[C@@H](Cc1ccccc1)NS2(=O)=O	5183
90	COC(=O)[C@@]1(C(C)C)N=C(c2cc(OC)c(OC)c(OC)c2)[C@]2(O1)C(=O)N(C)c1ccc(Br)cc12	6326

The listing continues.
cpd	compound	Autofluor counter
91	Cc1ccccc1S(=O)Cc1ccc(C(=O)N2CCN(C3CCCCC3)CC2)o1 (centres undefined)	3910
92	CN1C2CNC(=O)CC1C1CCC2C1 (centres undefined)	4113
93	Cc1ccc(-c2cc(C(=O)NCC3(N(C)C)CCCCC3)c3ccccc3n2)o1	3058
94	CCCN(C)C[C@@H]1OCc2cnnn2CCCC(=O)N([C@H](C)CO)C[C@H]1C	3624
95	CC(C)(C)Cc1c(C2CCCCC2)nc2ccc(Br)cn12	5442
96	COc1ccc(Cn2cc(CN3CC(N(C)C)CS3(=O)=O)nn2)cc1 (centres undefined)	3986
97	CCCCc1c(-c2ccccc2OC)ncn1CCc1ccccc1OC	4522
98	COc1ccc(C(C)=O)cc1OCc1ccccc1	3847
99	CC1(C(=O)NS(=O)(=O)c2ccccc2)CCN1C(=O)COc1ccc(Cl)cc1 (centres undefined)	3034
100	Cc1nc2sccn2c(=O)c1S(=O)(=O)N1CCN(c2ccccc2F)CC1	5527
101	O=C(c1cc(COc2cccc(C(F)(F)F)c2)on1)N1CCCC1	4023
102	OC[C@@H]1CN(Cc2cccc(C(F)(F)F)c2)C[C@H](n2cnc3c(NCc4ccco4)ncnc32)O1	3695
103	CCCCN(C)c1c(C)nc2ccc(C(=O)NC3CCN(C)CC3)cn12	3864
104	O=C(COC(=O)CNC(=O)c1ccccc1)NC12CC3CC(CC(C3)C1)C2	3922
105	O=S1(=O)C[C@@H](N2CC[C@@H](O)C2)[C@H](COCc2ccccc2)N1	5693
106	O[C@H]1C[C@H](c2ccc(Cl)cc2)N(CC2CCCCC2)C[C@@H]1n1cc(-c2ccc(F)cc2)nn1	3691
107	COc1ccc(NC(=O)CSc2nnc3n2CCCCC3)cc1S(=O)(=O)N(C)C	3939
108	CCCCC(=O)N(C)c1c(CC)nc2c(OCC(=O)c3ccc(Cl)cc3Cl)cccn12	3904
109	COc1ccc(OC)c(NC(=O)C2(C)CCN2C(=O)CCC2CCCC2)c1 (centres undefined)	2867
110	O=C1C(=Cc2ccc(F)cc2)CCc2ccccc21	4417
111	CNc1nc(-c2ccccc2)c2sccc2n1	3975
112	COc1ccc(CCC(=O)O)c(C(CC(=O)O)C(=O)O)c1OS(=O)(=O)c1ccc(C)cc1 (centres undefined)	3717
113	COc1ccc(CCCNC(=O)C2Cc3c(-c4ccc5c(c4)OCO5)ccnc3O2)cc1 (centres undefined)	3550
114	Cc1cc(C)cc(NC(=O)COC(=O)C2CC3C=CC2C3)c1 (centres undefined)	3680
115	Cc1sc2ncnc(N3CCC(C(=O)N(C)CC(=O)Nc4cccc(F)c4)CC3)c2c1C	2965
116	Cc1ccc(S(=O)(=O)N(C)C[C@H]2Oc3ncc(-c4ccccc4)cc3C(=O)N([C@@H](C)CO)C[C@@H]2C)cc1	4415
117	CCOc1cc2[nH]c(=S)n(CCC(=O)NC3CCCCC3)c(=O)c2cc1OCC	2896

Some of the compounds tested; the hit share may differ from the screen's.
